Bioassay records (PubChem BioAssay)
Bead autofluor: flagged as autofluorescent in microsphere protease counterscreen. compound autofluorescence counterscreen, microsphere flow cytometry; active compounds read high. fluorescence intensity (concentration not given with the values). 360,000 compounds, 3.1% hits;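 active means at least 3 SD above the mean of all compounds, about 16000 in these data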;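 further: 100 nL of 1 mM stock went into each well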
Sa ugtP lethal: growth inhibition of S. aureus ugtP deletion strain | growth inhibition, % (test concentration not listed) | 330,000 compounds, 0.54% hits | S. aureus RN4220 ugtP deletion, OD600 growth, 16 h; some inactives read as strong as hits | AID 1259309;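 active means z-score under -3 and OD600 up to 0.15 on both plates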;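 further: plate controls were untreated wells for no effect and antibiotic for full effect; wells of about 80 µL received 100 nL stock; the first replicate is given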
RN4220 kill: kills Staphylococcus aureus RN4220 | AID 1259311 | inhibition, % (test concentration not listed) | 330,000 compounds, 0.33% hits | S. aureus RN4220 growth, OD600, 16 h;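 active means z-score of -3 or lower and OD600 up to 0.18 on both plates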;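 further: plate controls were untreated cells for no effect and reference antibiotic for full effect; stock transfer was 100 nL into about 80 µL; one replicate is shown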
PrP UTR inh: inhibition of PrP 5' UTR reporter expression | inhibition, % (concentration not given with the values) | AID 488862 | cell-based PrP 5' UTR mRNA reporter, plate reader | 340,000 compounds, 0.35% hits;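 active means every replicate at 50% or more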;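 further: 0 = median of the neutral control wells; tested in H4 reporter cells; numbers are from one replicate; inactives centre near -14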
BJeLR lethal: BJeLR cell viability loss; inhibition, % (test concentration not listed); AID 1554; BJeLR (HRASV12) viability, CellTiter-Glo ATP luminescence, 48 h; reference of the scale not given here; 300,000 compounds, 0.17% hits;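 active means replicate mean above 50%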;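 further: 50 nL library stock added to about 25 µL; numbers are from one replicate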
Mtb hypoxia inh: Mtb hypoxia fluorescent reporter inhibition. AID 1159583. 300,000 compounds, 0.1% hits. M. tuberculosis hypoxia-regulated fluorescent reporter, fluorescence. fluorescence inhibition, % (test concentration not listed);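 active means 35 to 45% if threefold the growth effect, above 45% if 1.5-fold the growth effect; inactive means the rest, general growth blockers included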;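 further: wells of about 50 µL received 100 nL stock; 0% = vehicle wells and 100% = reference inhibitor wells; whole bacteria with a GFP reporter of the hypoxia response; strong numbers were not always called active; many hits fall short of the cut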
Mtb hypoxia inh growth: recorded beside Mtb hypoxia inh, whose call it bears; growth inhibition, %; measured here: M. tuberculosis growth (absorbance);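 0% = vehicle and 100% = reference antibiotic; read after six days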
Starred values were filed as active, the others as inactive; / = no result given.

SMILES	Bead autofluor	Sa ugtP lethal	RN4220 kill	PrP UTR inh	BJeLR lethal	Mtb hypoxia inh	Mtb hypoxia inh growth
Oc1c(Br)cc(Br)cc1C=NNc1ccc(Cl)nn1	/	100*	21	/	/	-8	-7
Cc1ccc(S(=O)(=O)Nc2cc(Cl)ccc2-n2cncn2)cc1	3873	-1	36	-7	/	3	10
Cc1cc(N2CCN(c3ccccn3)CC2)n2nc(C)nc2n1	2596	2	-1.9	10	-4	/	/
COc1ccc(-c2ccc3ccccc3n2)cc1OC	4736	4	11	-57	1	13	11
C=CCc1ccccc1OCC(=O)NN=Cc1ccc(OC(C)=O)cc1OC(C)=O	/	-2	-2.2	/	/	-7	-10
COc1ccccc1NC(=O)CCC(=O)Nc1nnc(C(F)(F)F)s1	9809	5	4.6	/	12	6	2
O=C(COC(=O)C1CCCCC1)NCc1ccc(Cl)cc1	3756	0	4.2	1	/	16	10
O=C(Nc1nc2ccccc2s1)C1CCCN1S(=O)(=O)c1ccc(Cl)cc1 (centres undefined)	22849*	15	1.1	5	-2	-5	0
COc1ccc(Cl)cc1NC(=S)NCc1ccccn1	7289	0	3.5	-10	0	9	16
S=C(Cc1ccccc1)Nc1ccccc1	3339	-1	4.4	-27	/	10	10
COC(=O)[C@@]1(Cc2ccccc2)[C@H]2C(=O)N(Cc3ccccc3)C(=O)[C@H]2[C@H]2CN=C(SCc3ccc(C#N)cc3)N21	3782	-9	1.0	-20	/	-5	7
COc1ccc(S(=O)(=O)N2CCCCCC2)cc1NC(=O)CN1C(=O)NC(C)(c2ccc(C)cc2)C1=O (centres undefined)	6274	-5	1.6	-10	-5	-9	-4
C=CCn1c(CNc2ccc(C)cc2)nnc1SCC(=O)N/N=C/c1ccc(O)cc1	2714	/	/	-4	-1	/	/
Nc1cc(=O)[nH]c(SCC=Cc2ccccc2)n1	/	0	5.6	/	/	8	5
CCCCCn1c(=O)[nH]c2cc(C(=O)N3CCN(c4ccc(C(C)=O)cc4)CC3)ccc2c1=O	3248	10	3.2	-17	2	-2	1
CC(C)CCN1CC(=O)N2Cc3[nH]c4ccccc4c3C[C@H]2C1=O	3605	8	3.1	5	7	5	6
CSc1nsc(SC)c1NC(=O)N1CCCCC1	2386	0	-11	-53	-6	9	4
O=C(CCn1cnc(-c2ccccc2)c1-c1ccccc1)N/N=C/c1ccc(O)cc1	2106	/	/	-16	6	/	/
COC(=O)C1=C(c2ccc(OC)c(OC)c2)CC2CCC1N2C(=O)NCCCOC(C)C (centres undefined)	/	-10	4.2	/	/	2	8
Cc1nnn(-c2nonc2N)c1C(=O)N/N=C/c1ccccc1O	2131	/	/	-27	-10	/	/
CC1(C2CC2)NC(=O)N(CC(=O)Nc2ccccc2F)C1=O (centres undefined)	4453	2	1.2	-27	/	2	-12
Cc1ccc2nc3c(nc2c1)-c1ccccc1C3=O	23481*	-15	-0.8	-26	-2	3	14
CC(C)Nc1nc(NC(C)C)nc(C(N)=O)n1	16247*	6	2.6	-25	1	-4	6
CC(=O)NC(NC(=S)Nc1ccc(N=Nc2ccccc2C)cc1C)C(Cl)(Cl)Cl (centres undefined)	3114	4	-0.6	-22	0	5	4
O=C(N/N=C/C=C\c1ccccc1[N+](=O)[O-])c1cc(-c2ccccc2)nc2ccccc12	1905	/	/	2	18	/	/
Nc1cc(Cl)c(N)cc1Cl	15209	-5	2.0	-12	-4	-4	-4
CCOC(=O)N1CCN(C(=O)c2ccccc2Oc2ccccc2)CC1	2687	-1	-2.9	-9	4	/	/
CC(=NCCCO)c1c(O)n(Cc2ccccc2)c(=O)[nH]c1=O	3320	2	-1.3	-22	-2	10	-4
CC1Cn2c(nnc2-c2cccs2)S1 (centres undefined)	11670	3	5.9	-13	4	2	0
O=C(Cn1cnc2c(nnn2Cc2ccc(F)cc2)c1=O)NCC1CCCO1 (centres undefined)	4524	8	3.3	-6	-13	8	-3
CN(C)N=Nc1ccc(S(=O)(=O)/N=C(\O)c2ccccc2)cc1	4576	/	/	-1	-1	/	/
CC1=C([N+](=O)[O-])C(c2ccc(Cl)cc2)NC(=O)N1C (centres undefined)	3734	/	/	-14	-3	/	/
CCOc1ccccc1NC(=O)N1CCCC1C(=O)NCc1cccs1 (centres undefined)	4920	-9	2.2	-24	-1	2	-4
O=C(CN(C(=O)c1csnn1)c1ccc(Br)cc1)NC1CCCC1	5389	9	0.2	-17	-16	1	-2
CCC(=O)Nc1cc(Cl)ccc1N1CCN(C(=O)CC)CC1	2358	-1	-0.9	-12	-14	/	/
COc1cc(SC)ccc1C(=O)Nc1ccc(Br)cn1	6438	52	3.9	68*	4	-1	2
O=C(COC(=O)/C=C/c1ccccc1[N+](=O)[O-])Nc1ccc2[nH]c(=O)[nH]c2c1	3656	1	2.5	-23	/	6	1
COc1ccc(C(C)=O)cc1CSc1nnc(C)n1-c1ccccc1	7580	-10	5.3	-44	2	9	1
NC(=O)C1CCN(C(=O)COc2ccc(S(=O)(=O)NC3CCCC3)cc2)CC1	3738	11	-0.5	-27	10	7	-6
COc1cc(N)ccc1NC(=O)c1cccs1	4195	2	0.5	-13	2	/	/
COC(=O)/C=C1\SC(=Nc2ccc(Cl)c(Cl)c2)NC1=O	4188	/	/	-12	3	/	/
CCCCNC(=O)Nc1nnc(SCC(=O)OCC)s1	2089	1	3.0	-17	-6	12	10
Cc1cc(C)n(S(=O)(=O)c2ccccc2[N+](=O)[O-])n1	3340	9	7.6	-26	9	-2	3
COc1ccc(C)cc1NC(=O)Cn1c(=O)oc2ccccc21	3399	/	/	-4	0	/	/
CCCCN(C(=O)CNC(=O)c1cccs1)C(C(=O)NC1CCCC1)c1ccncc1 (centres undefined)	2211	4	5.5	-12	-5	4	1

One compound at a time, from the list above:
Entry for COc1ccc(C(C)=O)cc1CSc1nnc(C)n1-c1ccccc1 → Bead autofluor: 7580; Sa ugtP lethal: -10; RN4220 kill: 5.3; PrP UTR inh: -44; BJeLR lethal: 2; Mtb hypoxia inh: 9; Mtb hypoxia inh growth: 1
Entry for COc1ccc(C)cc1NC(=O)Cn1c(=O)oc2ccccc21 → Bead autofluor: 3399; Sa ugtP lethal: /; RN4220 kill: /; PrP UTR inh: -4; BJeLR lethal: 0; Mtb hypoxia inh: /; Mtb hypoxia inh growth: /

More results.
SMILES	Bead autofluor	Sa ugtP lethal	RN4220 kill	PrP UTR inh	BJeLR lethal	Mtb hypoxia inh	Mtb hypoxia inh growth
Cc1ccc2c(c1)N(CCCC(=O)NCc1ccc3c(c1)OCO3)C(=O)CO2	4987	17	6.0	-18	-12	8	1
CC(=O)N=c1sccn1CC(O)c1ccc(Br)cc1 (centres undefined)	4683	5	5.1	-3	-10	2	3
CNC(=O)C(C#N)(Cc1cc(C(C)=O)ccc1OC)Cc1cc(C(C)=O)ccc1OC	4206	12	5.0	0	1	10	0
C=CCOc1cccc(C2C(C(=O)c3ccco3)=C(O)C(=O)N2Cc2ccco2)c1 (centres undefined)	3552	5	8.0	-17	12	-5	-2
Cc1ccc(S(=O)(=O)N(CC(=O)Nc2cccc(C(F)(F)F)c2)C(=O)N2CCN(C)CC2)cc1	5565	4	2.8	-4	0	-1	1
O=C(c1ccccc1)C(C(=O)N1CCc2ccccc2C1)n1ccccc1=O (centres undefined)	9757	7	3.9	-10	6	-4	1
O=C(O)C(c1ccccc1)N1C(=O)/C(=C\c2ccc(-c3ccccc3Cl)o2)SC1=S (centres undefined)	3117	61	-9.1	-22	-7	19	-3
Cc1ccnc(N2C(=O)c3ccccc3C2Nc2ccccc2Cl)c1 (centres undefined)	6044	-4	-4.1	-33	-5	6	7
O=C(NCCCCc1ccccc1)c1cccc([N+](=O)[O-])c1	3382	5	0.0	-16	-9	4	2
CCOC(=O)c1ccc(NC(=O)NC2CC3CCC(C2)N3Cc2nnnn2C(C)(C)C)cc1 (centres undefined)	4071	-11	2.2	-2	-1	-1	7
Cn1c(=O)c([N+](=O)[O-])c(NCC2CCCO2)c2ccccc21 (centres undefined)	6057	7	5.5	-16	-13	4	-4
Cc1ccc(C)c(N2CCN(CC3CC=CCC3)CC2)c1 (centres undefined)	5827	6	2.7	-1	-2	15	32
CS(=O)(=O)c1ccccc1C(=O)Nc1ccc(S(=O)(=O)N2CCCC2)cc1	3641	8	0.0	-12	/	4	8
O=C(CNC(=O)c1cccnc1)N/N=C/c1cccnc1	3707	/	/	-20	-6	/	/
Cc1ccccc1CN1CC2CC(c3cn[nH]c3-c3ccc(F)cc3)N3CCC[C@@]23C1=O (some centres undefined)	/	3	4.4	/	/	5	15
NNC(=O)c1csc(-c2ccccc2)n1	3365	4	5.2	-21	-1	16	7
Cc1ccc(/C([O-])=C(/C(=S)NCc2ccc3c(c2)OCO3)[n+]2ccc(N(C)C)cc2)c(C)c1	3442	3	1.4	66*	-5	17	16
COc1ccc2c(c1)C(c1ccc(N3CCOCC3)cc1)=NNC(c1cccnc1)=N2	2507	-1	3.7	-39	-15	-13	9
CNC(CC(=O)c1ccc([N+](=O)[O-])cc1)C(Cl)(Cl)Cl (centres undefined)	2040	54	18	50	/	10	11
COc1ccccc1NC(=O)c1cccc(S(=O)(=O)N2CCN(Cc3ccccc3)CC2)c1	4824	5	2.3	-23	6	6	-5
O=C(Nc1ccccc1Cl)N1CCN(c2ncccn2)CC1	2964	-5	-13	-13	-2	13	10
CCCCCCCNC(=O)c1cc(-c2ccncc2)nc2ccccc12	4163	-1	-1.5	0	-5	1	2
C[n+]1ccc(C(=O)NCCC[N+](C)(C)C)cc1/C=N/O	4513	/	/	-29	4	/	/
COc1ccccc1N=Nc1ccc(O)c2ncccc12	2488	-18	4.6	-9	23	24	16
C=C(C)c1cccc(C(C)(C)NC(=O)NC2CCCC2)c1	9092	7	8.0	-30	-5	3	11
O=C(Nc1cn(-c2ccccc2)nc1-c1ccc(Cl)cc1)c1ccccc1	8476	-8	16	-19	-2	0	2
CC(Oc1ccc(Cl)cc1Cl)c1ccn[nH]1 (centres undefined)	3942	-9	4.7	-4	-6	-2	-6
CCN(CC)CCCNC(=O)C1c2ccccc2C(=O)N(CCOC)C1c1ccc(F)cc1 (centres undefined)	3889	5	3.4	-11	1	-4	6
CCCCNC(=O)COC(=O)CCC(=O)c1ccc(Cl)cc1	3648	6	7.7	-17	-4	5	-4
CCN(CC)CCCCOc1ccccc1OC	20460*	6	-1.3	-21	-14	5	1

Copied from the results shown for reference:
SMILES	Bead autofluor	Sa ugtP lethal	RN4220 kill	PrP UTR inh	BJeLR lethal	Mtb hypoxia inh	Mtb hypoxia inh growth
Oc1c(Br)cc(Br)cc1C=NNc1ccc(Cl)nn1	/	100*	21	/	/	-8	-7
Cc1ccc(S(=O)(=O)Nc2cc(Cl)ccc2-n2cncn2)cc1	3873	-1	36	-7	/	3	10

Following part:
SMILES	Bead autofluor	Sa ugtP lethal	RN4220 kill	PrP UTR inh	BJeLR lethal	Mtb hypoxia inh	Mtb hypoxia inh growth
COc1ccc(CCCC(=O)NC(C)c2ccccc2)cc1 (centres undefined)	1969	0	1.6	-52	9	4	12
S=C(NCC1CCCO1)NC1CCCC1 (centres undefined)	1953	0	2.5	-18	-2	-4	0
Cc1nc(C)c(-c2ccc(SCC(=O)Nc3cccc(Cl)c3C)nn2)s1	6586	1	0.6	2	6	-14	7
CCOc1cc(N2CCOCC2)c(OCC)cc1NC(=O)COC(=O)/C=C/c1ccc(OC(F)F)cc1	5715	6	4.6	-28	-9	9	8
CCCCn1c(N)c(N(CCOC)C(=O)c2cc(S(=O)(=O)N3CCOCC3)ccc2F)c(=O)[nH]c1=O	6130	3	1.7	0	-7	2	8
COc1ccc(C(=O)N2CCN(C(=O)Cc3ccccc3)CC2)cc1OC	11369	3	-0.6	-33	-1	6	-3
COc1ccc(-c2noc(COC(=O)c3ccco3)n2)cc1OC	8664	3	2.9	-7	/	-6	-4
CC(=O)Nc1ccc(NC(=O)COC(=O)Cn2cnc3ccccc32)cc1	4299	2	3.4	-25	/	5	-1
[O-][n+]1cccc2ncc3cscc3c21	2644	-4	-2.0	-21	1	-1	6
O=C(Nc1ccccc1)C1=C[C@H](c2ccccc2)C[C@H](OCCCCO)O1	3565	/	/	-59	-4	/	/
COC(=O)C1=C(O)/C(=C\c2cc(C)n(-c3ccccc3C)c2C)N=C1C	10371	-12	4.7	-142	-12	8	3
O=C(CCS(=O)(=O)c1ccc(Br)cc1)NCc1ccc(F)cc1	4459	-4	-1.3	-7	-6	-15	-6
